CtBP-E1A blk = inhibitors of CtBP/E1A interaction. AlphaScreen GST-E1A/His-CtBP binding, 1536-well; hits give low values; control for the full effect not named in the record. activity change, % (concentration not given with the values). 0.49% of 340,000 active; in the data active means activity change below about -65%; inconclusive means about -30% to -65%; inactive means above about -30%; also: % is scaled to controls: 0 for no effect and ±100 for the full control effect
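GST-E1A and His-tagged CtBP (125 nM each as 5X stock) were preincubated with pin-transferred compound for 2 h at 37 °C in the dark, then glutathione donor and nickel acceptor beads were added for 1 h before AlphaScreen reading.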
TRPML1 agonist = agonists of human TRPML1 channel | TRPML1-expressing cells, Ca2+ dye fluorescence, FDSS; host cell line not named in the record; reference of the full effect not given here | activation, % (no concentration beside the values) | 0.12% of 410,000 active; in the data active = activation above about 50%; inconclusive = about 30% to 50%; inactive = below about 30%; also: 0% is about no effect; the text of the record puts the active cut at 80%
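In this qHTS format, compounds were pin-transferred onto Ca8-dye-loaded TRPML1-DL cells induced with Tet overnight, and intracellular Ca2+ fluorescence was recorded kinetically for 110 s after a 10 s baseline. A subsequent 4uM final 54-4 (EC80) addition followed by a second 110 s read served as the antagonist phase.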
D2 PAM = human D2 receptor positive allosteric modulation; 0.23% of 360,000 active; potentiation, % (concentration not given with the values); DiscoveRx D2 beta-arrestin cells, luminescence, 90 min; 100% = 57 uM dopamine signal; AID 624464; P14416; active = potentiation of 50% or more; inconclusive = 30% to 50%; inactive = 30% or less;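 also: compound concentration not given in the record; tested on top of an EC20 dose of dopamine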
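PathHunter beta-arrestin assay in DiscoveRx D2 cells. Compounds were added with an EC20 of dopamine (50 nM final) for 90 min at 37 deg C. Luminescence was read 1 h after detection reagent, with 57 uM dopamine as the EC100 control.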
D2 agonist = activates the human D2 dopamine receptor; DiscoveRx PathHunter D2 beta-arrestin, luminescence, 90 min; 100% = 57 uM dopamine signal; activation, % (test concentration not listed); 0.084% of 360,000 active; AID 624465; in the data active = activation above about 40%; inconclusive = about 15% to 40%; inactive = below about 15%; also: compound concentration not given in the record; the text of the record calls up to 30% inactive
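DiscoveRx PathHunter D2 beta-arrestin cells (2,100/well) attached overnight, then compound-stimulated 90 min at 37 C in HBSS/10 mM HEPES/0.1% Tween-20 buffer; beta-galactosidase complementation read by luminescence after 1 h at ambient temperature. Dopamine 57 uM final (EC100) as control.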
Six1-Eya2 inh = Six1/Eya2 interaction inhibition | Q15475+O00167 | AlphaScreen GST-Six1/His-Eya2 binding, biochemical; hits give low values; control for the full effect not named in the record | activity change, % (test concentration not listed) | 0.56% of 360,000 active | AID 651725; in the data active = activity change below about -65%; inconclusive = about -30% to -65%; inactive = above about -30%; also: % is scaled to controls: 0 for no effect and ±100 for the full control effect; compound concentration not given in the record
Target sequence (O00167 whole entry, looked up): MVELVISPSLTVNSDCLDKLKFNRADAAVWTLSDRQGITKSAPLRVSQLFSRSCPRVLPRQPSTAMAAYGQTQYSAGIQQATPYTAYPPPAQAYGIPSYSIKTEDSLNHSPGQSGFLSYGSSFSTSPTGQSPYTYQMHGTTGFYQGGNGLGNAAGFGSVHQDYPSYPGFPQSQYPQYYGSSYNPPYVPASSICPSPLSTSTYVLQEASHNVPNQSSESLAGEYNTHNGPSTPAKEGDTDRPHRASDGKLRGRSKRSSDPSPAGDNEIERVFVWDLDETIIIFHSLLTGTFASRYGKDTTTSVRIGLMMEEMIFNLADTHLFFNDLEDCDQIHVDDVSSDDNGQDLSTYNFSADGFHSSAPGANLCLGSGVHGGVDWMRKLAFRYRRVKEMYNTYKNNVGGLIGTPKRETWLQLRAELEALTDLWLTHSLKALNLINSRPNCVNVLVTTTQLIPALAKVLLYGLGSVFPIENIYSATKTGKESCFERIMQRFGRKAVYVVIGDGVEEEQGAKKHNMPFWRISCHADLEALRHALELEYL
Target sequence (Q15475 whole entry, looked up): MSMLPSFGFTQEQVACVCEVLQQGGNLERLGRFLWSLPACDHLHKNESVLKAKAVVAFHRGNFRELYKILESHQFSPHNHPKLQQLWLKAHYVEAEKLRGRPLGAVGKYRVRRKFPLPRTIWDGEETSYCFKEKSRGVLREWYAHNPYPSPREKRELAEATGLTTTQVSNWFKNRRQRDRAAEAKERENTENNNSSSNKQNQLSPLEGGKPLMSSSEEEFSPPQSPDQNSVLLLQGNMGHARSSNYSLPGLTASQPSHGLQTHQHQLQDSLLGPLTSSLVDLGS
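AlphaScreen luminescence read after one hour at 37 °C in darkness. Pin-transferred compounds met GST-Six1 and His-Eya2 protein (5X stock 250 nM/500 nM) plus glutathione donor and Ni-chelate acceptor beads (5X, 50 ug/mL).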
PINK1 modulator = PINK1 expression modulation. PINK1 immunofluorescence, high-content cytometry, 24 h. Potency, µM (highest dose often 76.6 µM), without a hit: top-dose activation (PINK1 increase), usual class: activators. 0.2% of 410,000 active; active = well fitted activation curve with a large enough effect; inconclusive = small, poorly fitted or top-dose-only effect; inactive = flat fitted curve, though single readings scatter; cell line not stated here;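 also: potency is read from the fitted curve at half-maximal effect; % of control where 0% means no effect; nearly all actives have a fitted effect of over 65% in size; a mitochondrial uncoupler was the plate control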
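PINK1 protein level read as immunofluorescence by microplate cytometer in a fixed, stained stable cell line after 24 h exposure to five compound concentrations, with CCCP as control.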
* = called active by the depositor; · = not tested or not shown; [ ] = remark or other dose.

SMILES | CtBP-E1A blk | TRPML1 agonist | D2 PAM | D2 agonist | Six1-Eya2 inh | PINK1 modulator
CC(C)NC(=S)NN=C1c2ccccc2-c2ccccc21 | -5 | 1.9 | -17 | -19 | -9 | 4.9%
O=C(CN1C(=O)CSCC1=O)Nc1ccc2c(c1)OCO2 | 1 | 0.1 | -1 | -2.1 | -3 | 0.1%
Cc1ccc2cc3c(N)c4c(C)ccc(C)c4nc3nc2c1 | · | 6.4 | -8 | -8.6 | 1 | 3.1%
CC(C)CNC(=O)NC(=O)COc1c(F)c(F)cc(F)c1F | 0 | 1.9 | -38 | -4.5 | 0 | 1.1%
Nc1ccc(-c2ccc(N)c(C(=O)O)c2)cc1C(=O)O | -2 | -0.2 | -8 | 0.8 | 1 | -1.5%
O=C(NCCCN1CCOCC1)c1ccc2ccccc2c1 | -1 | -0.1 | -22 | -0.1 | 8 | -1.0%
Nc1c(C(=O)CSc2nnnn2-c2ccc(O)cc2)c(=O)[nH]c(=O)n1C1CC1 | 6 | -0.5 | 1 | -1.7 | -10 | 7.8%
CN(C)S(=O)(=O)c1cccc(C(=O)N=C2N=C3C=CC(Cl)=CN3Cc3ccccc32)c1 | 8 | 1.0 | 3 | 1.9 | 1 | -0.7%
CCC(C)N(C(=O)Cn1nnc(-c2ccc(F)cc2)n1)C1CCS(=O)(=O)C1 (stereo unspecified) | 12 | -0.5 | -6 | -2.1 | 4 | 0.4%
COc1ccc(N2CCN(c3nc(NCCO)nc(N4CCOCC4)n3)CC2)cc1 | -9 | 1.3 | -15 | -2.4 | -15 | -1.4%
CCCCNc1ccccc1C(=O)OCC(=O)Nc1ccc(S(N)(=O)=O)cc1 | 7 | 1.4 | -6 | -2.5 | 5 | 9.0%
COc1cc(C(O)c2nc(-c3ccc(F)c(Cl)c3)cs2)ccc1F (stereo unspecified) | 7 | -0.8 | 3 | 4.5 | 5 | 9.1%
O=[N+]([O-])c1cc(-c2n[nH]c(-c3ccccc3)n2)cc([N+](=O)[O-])c1 | -7 | 0.3 | 53* | 6.0 | -13 | ·
CCOC(=O)C1CCCN(C(=O)Cn2cnc3c2c(=O)n(C)c(=O)n3C)C1 (stereo unspecified) | 0 | -0.5 | -11 | -1.6 | 1 | 5.0%[38.3 µM]
COc1ccc(-c2sc3cc(OC)c(OC)cc3c2C#CCCO)cc1 | -12 | -1.3 | -11 | -3.3 | -22 | 3.7%
COc1ccc(C(=O)N2CCN(c3ccccc3)CC2)cc1S(=O)(=O)N1CCCC1 | -1 | -0.2 | 0 | -2.8 | 1 | 0.6%
COc1ccc2cc(CN(C(=O)Nc3ccccc3)C3CCCC3)c(=O)[nH]c2c1 | 15 | 0.3 | -9 | -2.1 | -3 | -4.4%[38.3 µM]
COc1ccc(C(=O)NNC(=O)C(=O)NCc2ccccc2)cc1 | 4 | -0.3 | -2 | -2.8 | -3 | -0.1%
Cc1cc(N2CCOCC2)nc(-c2ccc(Br)cc2)n1 | 9 | 1.7 | -11 | -0.4 | 6 | 2.3%
Cc1cc(N/N=C/c2ccc(O)cc2O)nc(-n2nc(C)cc2C)n1 | -80* | 4.3 | -67 | -19 | -70* | 3.7%

Record cards, as listed above:
Profile of `O=C(CN1C(=O)CSCC1=O)Nc1ccc2c(c1)OCO2` → CtBP-E1A blk = 1; TRPML1 agonist = 0.1; D2 PAM = -1; D2 agonist = -2.1; Six1-Eya2 inh = -3; PINK1 modulator = 0.1%
Profile of `CCOC(=O)C1CCCN(C(=O)Cn2cnc3c2c(=O)n(C)c(=O)n3C)C1` (stereo unspecified) → CtBP-E1A blk = 0; TRPML1 agonist = -0.5; D2 PAM = -11; D2 agonist = -1.6; Six1-Eya2 inh = 1; PINK1 modulator = 5.0%[38.3 µM]

The listing continues.
SMILES | CtBP-E1A blk | TRPML1 agonist | D2 PAM | D2 agonist | Six1-Eya2 inh | PINK1 modulator
COC(=O)c1ccc(NC(=O)CN(C)Cc2cccc(F)c2)cc1 | -2 | 6.2 | -17 | -0.9 | -1 | 0.6%
O=C(NCCCN1CCCC1=O)c1csc2ccccc12 | 5 | -0.3 | -5 | -0.3 | 2 | 1.0%[38.3 µM]
CC1(C)CC(NC(=O)c2cccc(Cl)c2)CC(C)(C)N1 | 8 | -0.5 | 3 | -0.2 | 12 | 0.3%
CCCC(=O)Nc1ccc(N2CCN(C(=O)c3cc4ccccc4o3)CC2)cc1 | 3 | -0.1 | -4 | -4.6 | -5 | 10%
CN1C(=O)N(CC(=O)N2CCN(c3ncccn3)CC2)C(=O)C12CCCCC2 | 10 | 0.7 | -32 | -4.2 | 0 | -2.2%
CC(=O)C1=C(O)CC(c2ccccc2)CC1=NCCc1ccccc1 (stereo unspecified) | 3 | -1.8 | -3 | -4.5 | 10 | 2.8%
COc1ccccc1C(C)NC(=O)CCC(=O)N1CCN(S(=O)(=O)c2ccc(Cl)cc2)CC1 (stereo unspecified) | -9 | 2.5 | -3 | -4.7 | 5 | -0.1%
CCOC(=O)C1=CCN(S(=O)(=O)c2ccccc2F)C1c1ccc(F)cc1 (stereo unspecified) | 1 | -0.1 | 0 | -2.5 | 0 | 0.6%
Cn1c2c(c(=O)n(C)c1=O)C(c1ccc(Br)cc1)C(C#N)=C(N)N2 (stereo unspecified) | · | · | -5 | -2.3 | -14 | 3.5%
CN(CCOc1ccc(Cl)cc1)Cc1cccc(S(=O)(=O)N(C)C)c1 | -5 | -0.5 | -8 | 13 | 0 | 0.1%
CCn1c(COc2ccccc2C)nnc1SCC(=O)NCc1ccccc1 | -3 | -0.9 | -22 | -3.2 | 4 | 2.5%[38.3 µM]
Cc1ccc(NC(=S)Nc2ccc(F)cc2)cc1 | -9 | 0.7 | -6 | 0.0 | -10 | 2.2%
Cc1ccc(S(=O)(=O)CCc2nnc(N)s2)cc1 | 4 | -0.2 | -6 | -1.9 | 2 | -0.5%
COc1ccc(CCNC(=O)COC(=O)c2cc(OC)c(OC)cc2OC)cc1 | 9 | 0.0 | -10 | 2.1 | -3 | -0.3%
Nc1nc2c(nnn2Cc2ccc(Cl)c(Cl)c2)c(=O)[nH]1 | 9 | 0.5 | 1 | 3.4 | 0 | 0.2%
COc1ccc(CNC(=O)CN(CC2CCCO2)C(=O)CNS(=O)(=O)c2ccccc2)cc1 (stereo unspecified) | 10 | -0.8 | -15 | -2.2 | 0 | -1.2%
CCOC(=O)c1cnc(-n2nc(C)cc2C)nc1Nc1ccc(OC)cc1 | 2 | 0.3 | -1 | -1.9 | 6 | 4.5%
CC(=O)Nc1ccc(S(=O)(=O)NC2(C(F)(F)F)NC(=O)N(Cc3ccccc3)C2=O)cc1 (stereo unspecified) | -1 | -0.4 | -6 | -4.3 | 4 | -0.3%
CC(=O)Oc1ccc2c(=O)c(-c3nc4ccccc4s3)coc2c1 | 2 | -0.2 | 3 | -2.0 | 0 | 2.8%
C/C(=N\OC(=O)c1c(-c2ccccc2Cl)noc1C)c1nccs1 | -6 | 1.1 | -2 | -1.3 | 2 | 2.5%
COC(=O)c1onc(-c2c(Cl)cccc2Cl)c1C(=O)OC | 1 | 1.1 | 2 | -1.4 | 2 | 1.2%
O=C(O)CS(=O)(=O)c1ccc(Oc2ccc(S(=O)(=O)CC(=O)O)cc2)cc1 | 0 | -1.1 | 8 | -1.8 | 1 | -1.2%
CCN(CC)S(=O)(=O)c1ccc(N2CCCC2)c(C(=O)OCC(=O)Nc2cc(C)on2)c1 | -2 | 2.1 | -7 | -2.5 | -5 | 1.1%
COc1cc2[nH]c(=O)n(CCCC(=O)NCCc3ccccc3)c(=O)c2cc1OC | -2 | -0.1 | -3 | 0.8 | -11 | 1.1%
COc1cc(C(=O)Oc2c(CN3CCOCC3)cc(Cl)c3cccnc23)cc(OC)c1OC | -92* | -0.7 | -12 | -12 | -92* | 6.1%
CC1CCCC(C)N1C(=O)CSc1nnc(NC(=O)c2cccs2)s1 (stereo unspecified) | 1 | 0.2 | 15 | 0.4 | -3 | -1.7%
COc1cc(NC(=O)CCS(=O)(=O)c2ccc3nc(C)sc3c2)cc(OC)c1OC | 0 | -0.5 | -11 | 7.6 | 3 | 0.6%
Cc1cccc(-n2ncc3c(=O)[nH]c(SCC(=O)N4CC(=O)Nc5ccccc54)nc32)c1 | · | -0.9 | -10 | -1.6 | 10 | 5.5%
CCc1ccc2oc(=O)cc(CN3CCCCC3)c2c1 | -9 | 1.4 | -17 | 0.1 | -1 | 3.7%
COc1ccc(C2N(C(=O)c3ccccc3)CCN2C(=O)c2ccc(C)cc2)cc1 (stereo unspecified) | -14 | 0.5 | -17 | -2.6 | -5 | ·
CC(OC(=O)c1c(F)cccc1F)C(=O)NCCC1=CCCCC1 (stereo unspecified) | 1 | 3.0 | -7 | -3.5 | -6 | -0.9%
CCOCCCNC(=O)/C(C#N)=C/c1ccc([N+](=O)[O-])o1 | 4 | 0.6 | 1 | 0.4 | 6 | -0.2%
COc1ccc(C2=NC(C(F)(F)F)(C(F)(F)F)c3c(n(C)c(=O)n(C)c3=O)N2)cc1 | 15 | -0.7 | -14 | 0.4 | 7 | 12%
O=C(NC(c1ccc(F)cc1)c1ccc2ccccc2n1)C1CCN(Cc2cccc(C(F)(F)F)c2)CC1 (stereo unspecified) | -9 | -0.1 | -17 | -3.1 | -10 | 7.0%
CCc1ccc(N(CC(=O)NCc2ccc(F)cc2)C(=O)c2csnn2)cc1 | 11 | 0.0 | -5 | -1.6 | 0 | -1.6%
CCOC(=O)c1cnc2c(-c3ccccc3)c(C)nn2c1N | 0 | 1.3 | -14 | 1.6 | 2 | 4.3%
CCCCCC(=O)Nc1nnc(CCc2ccccc2)s1 | 5 | -0.6 | 1 | 14 | 0 | 0.6%
COc1ccc(OC)c(NC(=O)C2(C)CCN2Cc2cccc(OC)c2F)c1 (stereo unspecified) | -20 | 1.5 | -6 | -1.7 | -29 | 0.1%
CCNC(=O)/C(C#N)=C/c1c(N2CCN(C)CC2)nc2c(C)cccn2c1=O | 2 | -1.5 | -4 | 2.8 | -3 | -1.2%
CC#CC(=O)N1CCCC(Cc2cccc(OC)c2)(C(=O)OCC)C1 (stereo unspecified) | 7 | 1.5 | -2 | -2.5 | -1 | 4.7%

Some of the entries so far, with two lines to a compound.
Fields: CtBP-E1A blk, TRPML1 agonist, D2 PAM, D2 agonist, Six1-Eya2 inh, PINK1 modulator
CCCCNc1ccccc1C(=O)OCC(=O)Nc1ccc(S(N)(=O)=O)cc1
    7, 1.4, -6, -2.5, 5, 9.0%
COc1cc(C(O)c2nc(-c3ccc(F)c(Cl)c3)cs2)ccc1F (stereo unspecified)
    7, -0.8, 3, 4.5, 5, 9.1%
O=[N+]([O-])c1cc(-c2n[nH]c(-c3ccccc3)n2)cc([N+](=O)[O-])c1
    -7, 0.3, 53*, 6.0, -13, ·
CCOC(=O)C1CCCN(C(=O)Cn2cnc3c2c(=O)n(C)c(=O)n3C)C1 (stereo unspecified)
    0, -0.5, -11, -1.6, 1, 5.0%[38.3 µM]
COc1ccc(-c2sc3cc(OC)c(OC)cc3c2C#CCCO)cc1
    -12, -1.3, -11, -3.3, -22, 3.7%
COc1ccc(C(=O)N2CCN(c3ccccc3)CC2)cc1S(=O)(=O)N1CCCC1
    -1, -0.2, 0, -2.8, 1, 0.6%

Bioassay records: PubChem, National Center for Advancing Translational Sciences (NCATS)
